# Screening results (PubChem)
# E coli growth = blocks Escherichia coli growth | OD600, 23 h; stronger effect = lower value | OD600 absorbance (no concentration beside the values) | actives 0.21% (n = 330,000) | AID 1053175;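 active means OD600 absorbance below the run mean of sample wells minus 3.6 SD, in any replicate, cut at about 0.56 in these data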;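 further: stock transfer was 300 nL into about 60 µL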
# The depositor's hits bear a star; & = joins results of further samples. Not all compounds are listed; rates above refer to the full screens.
E coli growth | SMILES
0.7 | CCn1c(SCC(=O)NN=C/C=C/c2ccco2)nnc1-c1ccccc1
0.69 | CCOC1OC(C(=O)NC2CC2)=CC(c2csc3ccccc23)C1CCCO (stereo unspecified)
0.71 | O=[N+]([O-])c1ccccc1C=Nn1c(-c2cccnc2)n[nH]c1=S
0.66 | NC(=O)C1CCOc2c(F)cc([N+](=O)[O-])cc2C(=O)NC(CO)C(=O)NCC(=O)N1 (stereo unspecified)
0.72 | CC(=NNC(=O)c1cc(O)c(O)c(O)c1)c1ccc([N+](=O)[O-])cc1
0.75 | COCc1cc(C)nc(OCC(=O)NN=Cc2cccc(OC)c2)c1C#N
0.68&0.69 | O=C(C1=CC(C2CCCCC2)CC(OCc2ccc(CO)cc2)O1)N1CCN(Cc2ccccc2)CC1 (stereo unspecified)
0.69 | C#CCOCCOCCOCCNc1nc(N2CCN(C(=O)C(Cc3ccc(O)cc3)n3cc(C(N)C(C)CC)nn3)CC2)nc(N2CCN(C(=O)C(C(C)CC)n3cc(C(N)CC(C)C)nn3)CC2)n1 (stereo unspecified)
0.75 | COc1ccc(C=c2sc3n(c2=O)NC2(c4ccccc4)N(C)C(=O)N(C)C2(c2ccccc2)N=3)cc1 (stereo unspecified)
0.7 | O=C(NN=C1CCCc2ccccc21)C(O)c1ccccc1 (stereo unspecified)
0.74 | O=[N+]([O-])c1ccc(-c2ccc(C=Nc3c(-c4ccco4)nc4ccccn34)o2)c(Cl)c1
0.68 | COC(=O)Cc1cc(=O)[nH]c(N=C(N)Nc2ccc(C)cc2C)n1
0.67 | C/C(C=NNC(=O)c1ccccc1F)=C\c1ccccc1
0.7 | COc1ccc(NC(=O)C(=Cc2ccc(OS(=O)(=O)c3ccc(C)cc3)cc2)NC(=O)c2ccccc2)cc1
0.7 | O=C(ON=C(c1ccccc1)c1ccncc1)c1ccccc1F
0.66 | O=C(NN=C/C=C\c1ccc([N+](=O)[O-])cc1)c1cccnc1
0.66 | CSc1nncc(C(C)=NNc2ccccc2C)n1
0.048* | CNCC(Cc1ccccc1)NCC(Cc1cccc2ccccc12)NCCc1ccc(C)cc1 (stereo unspecified)
0.65 | CC(O)CC#Cc1ccc2oc(=O)c(-n3cc(-c4ccsc4)nn3)cc2c1 (stereo unspecified)
0.72 | O=[N+]([O-])c1ccc(-n2cccc2C=NNc2nc(N3CCCCC3)nc(N3CCCCC3)n2)cc1
0.7 | COc1cccc(C(C)=NNc2ccc(S(=O)(=O)N3CCCCC3)cn2)c1
0.69 | CC1CC[C@]2(C(=O)O)CC[C@]3(C)C(=CCC4[C@@]5(C)CCC(O)[C@@](C)(C(=O)O)C5CC[C@]43C)C2[C@]1(C)O (stereo partly specified)
0.68 | COc1ccc(C=NNC(=O)c2nc(-c3ccccc3)cc(-c3ccccc3)n2)cc1OC
0.7 | C=CCSC(N)=NN=Cc1c(O)ccc2ccccc12
0.64 | Cc1sc2nc(C)n(N=CN(C)C)c(=O)c2c1C
0.63 | Cc1ccc(S(=O)(=O)NCC(=O)NN=Cc2ccc(Cl)cc2)cc1
0.76 | CN=c1scc(C)n1N=Cc1ccc2c(c1)OCO2
0.64 | CCCOc1ccc2ccccc2c1C=Nn1cnnc1
0.66 | O=C(CC=NOCc1ccc([N+](=O)[O-])cc1)Nc1ccccc1
0.69 | COc1cccc(C=Nn2c(-c3cc(C)[nH]n3)n[nH]c2=S)c1O
0.66 | C(=NN1CCN(Cc2ccccc2)CC1)c1cccnc1
0.69 | CCOc1ccc(C=NNC(=O)NC23CC4CC(CC(C4)C2)C3)cc1O
0.71 | O=C(NN=Cc1ccncc1)c1cc([N+](=O)[O-])cc([N+](=O)[O-])c1O
0.64 | C#CCOCCOCCOCCNc1nc(N2CCN(C(=O)C(CCC(=O)O)n3cc(C(N)CO)nn3)CC2)nc(N2CCN(C(=O)C(CCCCN)n3cc(C(N)CC(C)C)nn3)CC2)n1 (stereo unspecified)
0.69 | CC(=NOC(=O)c1ccc(Br)cc1)c1ccccn1
0.68 | COc1ccc(C=N/N=C2/NC(=O)C(CC(=O)NC(N)=O)S2)cc1 (stereo unspecified)
0.69 | COc1cccc(C=NNc2ncc(C)c(=O)[nH]2)c1OC
0.72 | CC(=NNc1ccccc1)c1cc2ccccc2oc1=O
0.71 | C=C1CCN(C(C(=O)NCc2ccc(Cl)c(Cl)c2)C(C)C)S(=O)(=O)c2ccccc21 (stereo unspecified)
0.75 | Cc1cccc(-n2c(C)cc(C=Nn3cnnc3)c2C)c1
0.6 | Oc1cccc(C=NNc2cc(N3CCCC3)nc(N3CCCC3)n2)c1
0.71 | CC(=NOCC(=O)OC(C)C(=O)Nc1ccc(C(N)=O)cc1)c1ccc2c(c1)OCO2 (stereo unspecified)
0.66 | FC(F)(F)c1ccc(C=NN2CCN(Cc3ccccc3)CC2)cc1
0.75 | CCOc1ccc(NC(=O)CCC(=O)NN=C2CCCc3ccccc32)cc1
0.65 | Cn1cccc1C=NNC(=O)c1ccc[n+]([O-])c1
0.66 | O=C(CNC(=O)c1ccc2c(c1)OCO2)NN=Cc1cccc([N+](=O)[O-])c1
0.69 | O=C(ON=C1CCCc2occc21)c1ccc(F)cc1
0.67 | Cc1cc(C(=O)OC2C(C)NS(=O)(=O)C3CC4C=C[C@]23O4)cc([N+](=O)[O-])c1 (stereo partly specified)
0.72 | COc1ccc(OC)c(C=NNC(=O)c2[nH]nc3c2CCc2ccccc2-3)c1
0.68 | COc1ccc(C=NNC(=O)c2cccc([N+](=O)[O-])c2)cc1O

# Next part:
E coli growth | SMILES
0.71 | Cc1ccc(N(C)N=Cc2ccc(Cl)cc2Cl)nn1
0.7 | O=C(NN=Cc1c[nH]c2ccccc12)c1cc(-c2ccc3ccccc3c2)n[nH]1
0.7 | CCC1=C(OC(=O)N(CC)CC)N2C(=O)OC(=NCCc3c[nH]c4ccccc34)[C@]2(Cc2ccccc2)C2C1=CCC1C(=O)N(c3ccccc3)C(=O)C12 (stereo partly specified)
0.7 | CC1CN(C(C)CO)C(=O)c2cccc(NC(=O)Nc3ccc(C(F)(F)F)cc3)c2OC1CN(C)Cc1ccc(-c2ccccc2)cc1 (stereo unspecified)
0.64 | COc1ccc(O)c(C=Nc2nc3ccccc3n2C)c1
0.69 | O=S1(=O)CCOCC(Cc2ccccc2)N1Cc1ccccc1F (stereo unspecified)
0.69 | CCN(CC)c1ccc(C=NN(c2ccccc2)c2ccccc2)c(O)c1
0.68 | O=C(O)c1ccccc1C=Nn1c(C2CCCCC2)n[nH]c1=S
0.69&0.66 | CC(C(O)c1ccccc1)N(C)C(=O)CN (stereo unspecified)
0.65 | COc1ccc(C=NNC2=NCCCCC2)cc1
0.67 | Cc1ccc(OCC(=O)NN=Cc2cccc3cccnc23)cc1
0.68 | O=C(C=Cc1ccc(Cl)cc1Cl)NCCN1CCOCC1
0.71 | Cc1ccsc1C=Nn1c(-c2cccnc2)n[nH]c1=S
0.69 | CC1(C(=O)NN=Cc2ccc3c(c2)OCO3)CC1(Br)Br (stereo unspecified)
0.65 | COc1ccc(C2CC=C(C(=O)O)CN2S(=O)(=O)c2ccc(Cl)cc2)cc1 (stereo unspecified)
0.68 | CN(C)c1nc(Oc2ccc(C=NO)cc2)nc(N(C)C)n1
0.76 | COc1ccccc1-c1cc(C(=O)NN=C/C=C/c2ccccc2[N+](=O)[O-])c2ccccc2n1
0.71&0.66 | C=CCC(CC(=O)NC(CO)Cc1ccccc1)C(=O)NCCOC(=O)C(CC=C)CC(=O)OC(C)(C)C (stereo unspecified)
0.7 | C=C1CCN(C(C)C(=O)OCc2cccc(C)c2)S(=O)(=O)c2ccccc21 (stereo unspecified)
0.65 | CC(=NNc1cccc([N+](=O)[O-])c1)c1cc(F)ccc1O
0.66 | CC(=NNc1ccc(Cl)c(C(=O)O)c1)c1ccc[nH]1
0.65 | O=[N+]([O-])C(N=Nc1ccccc1)=NNc1ccccc1
0.71 | Cc1ccc(S(=O)(=O)N2CCN(CC(=O)NN=Cc3cc([N+](=O)[O-])ccc3Cl)CC2)cc1
0.7 | Cc1cccc(N=Cc2c(C)[nH]n(-c3ccccc3)c2=O)n1
0.68 | Cc1ccc2nc(C(Cl)(Cl)Cl)nc(NN=Cc3ccncc3)c2c1
0.59 | c1ccc2c(CC3CNCCN3CCC34CC5CC(CC(C5)C3)C4)cccc2c1 (stereo unspecified)
0.62 | O=C(COc1ccc(C=NNC(=O)c2ccncc2)cc1)Nc1cccc([N+](=O)[O-])c1
0.66 | O=C(NN=Cc1cc(Cl)ccc1O)c1ccccc1Br
0.73 | CCNC(=S)NN=Cc1ccco1
0.61 | COc1c(C=NNC(=O)c2ccccc2O)c(CCN(C)C(C)=O)cc2c1OCO2
0.72 | CCOc1ccc(-n2nnc3c(=O)n(CC=Cc4ccccc4)cnc32)cc1
0.64 | CC1C(=O)OC2C1CC[C@@]1(C)C(=O)C=C[C@@](C)(O)C21 (stereo partly specified)
0.66 | COc1ccc(S(=O)(=O)NN=Cc2ccc(OCCN3CCOCC3)c(OC)c2)cc1
0.72 | Cc1ccc(NN=C(C#N)C(N)=S)c(C)c1
0.74 | CC(=NNC(N)=O)c1ccc(Cl)cc1
0.69 | CCN1C(=O)C2C(c3ccc(-c4cccc(Cl)c4)cc3)N[C@@](C)(C(=O)OC)C2C1=O (stereo partly specified)
0.62 | CC(C)c1ccc(S(=O)(=O)N=C2C=C(Sc3ncn[nH]3)C(=O)c3ccccc32)cc1
0.64 | COc1cccc(C=NNC(=O)CSc2cccc3cccnc23)c1
0.65 | COc1ccc(N2CC(C(=O)NN=Cc3cc([N+](=O)[O-])ccc3O)CC2=O)cc1 (stereo unspecified)
0.7 | COc1ccc(CNC(=O)CC2C(=O)N(CCc3ccccc3)CC2Cc2ccccc2)cc1 (stereo unspecified)
0.67 | Cc1nn(C)cc1C=NNC(=O)C(C)(C)Oc1ccc(Cl)cc1
0.71 | Cc1ccc(C=Nn2c(C)cc(C)c(C#N)c2=O)cc1
0.67 | O=C(CN1CCS(=O)(=O)CC1)NN=Cc1cccc(C(F)(F)F)c1
0.64 | CCN(CC)C(=N)C(C#N)=NNc1ccccc1
0.68 | CC1=CC(=NNC(=O)c2cccs2)CC(C)(C)C1
0.65 | CCN(CC)C(=O)C(=O)NN=Cc1cccc(Br)c1
0.7 | Cc1ccc(S(=O)(=O)N2C(c3ccc4c(c3)OCO4)CC=C(C(=O)O)C2c2cccc(Cl)c2)cc1 (stereo unspecified)
0.68 | CCOC(=O)C1C2COc3ccc(OC)cc3C2N2C(=O)c3cc(F)c(F)cc3NC(=O)[C@@]12C (stereo partly specified)
0.71 | CN(C)C=NC(=S)Nc1ccccc1
0.69 | CCOC1OC(C(=O)O)=CC(c2ccc3c(c2)OCO3)C1CCCO (stereo unspecified)

# A second format for 3 compounds above.
molecule	E coli growth
O=C(NN=Cc1cc(Cl)ccc1O)c1ccccc1Br	0.66
CC1=CC(=NNC(=O)c2cccs2)CC(C)(C)C1	0.68
CCN(CC)C(=N)C(C#N)=NNc1ccccc1	0.64

# Molecules listed so far with a COOH group:
E coli growth | SMILES
0.69 | CC1CC[C@]2(C(=O)O)CC[C@]3(C)C(=CCC4[C@@]5(C)CCC(O)[C@@](C)(C(=O)O)C5CC[C@]43C)C2[C@]1(C)O (stereo partly specified)
0.64 | C#CCOCCOCCOCCNc1nc(N2CCN(C(=O)C(CCC(=O)O)n3cc(C(N)CO)nn3)CC2)nc(N2CCN(C(=O)C(CCCCN)n3cc(C(N)CC(C)C)nn3)CC2)n1 (stereo unspecified)
0.68 | O=C(O)c1ccccc1C=Nn1c(C2CCCCC2)n[nH]c1=S
0.65 | COc1ccc(C2CC=C(C(=O)O)CN2S(=O)(=O)c2ccc(Cl)cc2)cc1 (stereo unspecified)
0.66 | CC(=NNc1ccc(Cl)c(C(=O)O)c1)c1ccc[nH]1
0.7 | Cc1ccc(S(=O)(=O)N2C(c3ccc4c(c3)OCO4)CC=C(C(=O)O)C2c2cccc(Cl)c2)cc1 (stereo unspecified)
0.69 | CCOC1OC(C(=O)O)=CC(c2ccc3c(c2)OCO3)C1CCCO (stereo unspecified)

# Later entries.
E coli growth | SMILES
0.71&0.66&0.68&0.67&0.67&0.65&0.66&0.69 | COC(CC1OC1C(O)COCc1ccccc1)OC (stereo unspecified)
0.7 | Cc1ccc(C=NNC(=O)c2ccc(NC(=O)c3ccc(Cl)cc3)cc2)o1
0.66 | Cc1cc(C)n2nc(C(=O)NN=Cc3cn(C)nc3C)nc2n1
0.69 | Cc1cccc(NC(=O)C2CC(=O)N/C(=N/N=Cc3ccco3)S2)c1 (stereo unspecified)
0.7 | O=C(NN=Cc1ccncc1)c1ccccc1[N+](=O)[O-]
0.67 | CCOc1ccc(Cl)cc1C=NNC(N)=O
0.68 | Cc1ccc2nc(C(C#N)=NO)[nH]c2c1
0.66 | CCNN=C(Cc1nc2ccccc2[nH]1)c1ccccc1
0.62 | CC(=NNC(=O)CNC(=O)c1cccs1)c1ccc(Cl)c(Cl)c1
0.7 | COc1ccc2c(c1)-c1nc(N=Cc3cccc(OC)c3O)sc1CC2
0.65 | CCCSc1ccc(C2N[C@@](CC(C)C)(C(=O)OC)C3C(=O)N(CC)C(=O)C23)cc1 (stereo partly specified)
0.65 | Nc1nnc(CC(=O)NN=Cc2ccc(-c3ccc(F)cc3)o2)s1
0.68 | Cn1c(=O)[nH]c(=O)c2c1nc(NN=Cc1ccncc1)n2Cc1ccc(Cl)cc1
0.7 | CNC(=O)N(O)C1N(N=Cc2cccs2)C(=S)SC1(C)C (stereo unspecified)
0.69 | CN(C)C=NC(=S)Nc1ccc(Cl)cc1
0.72 | CC[C@]1(O)CC2CN(CCc3c([nH]c4ccccc34)[C@@](C(=O)OC)(c3cc4c(cc3OC)N(C=O)C3[C@@](O)(C(=O)OC)C(OC(C)=O)[C@]5(CC)C=CCN6CC[C@]43C65)C2)C1 (stereo partly specified)
0.67 | CC(C)(C)OC(=O)CNC(=O)c1[nH]cnc1C(=O)NC(CCCCNC(=O)OC(C)(C)C)C(=O)OC(C)(C)C (stereo unspecified)
0.71 | COc1ccc(C=NNc2ncnc(Cl)c2N)cc1OC
0.61 | CC(=C1SC(=S)N(CCC(=O)O)C1=O)c1ccc(O)cc1
0.62 | CCOc1cc(C=NNC(=O)C(=O)NC)cc(Br)c1O
0.69 | CCN(CC)Cc1c(C(=O)NN=Cc2cccnc2)nnn1-c1nonc1N
